Screening data: PubChem BioAssay, several laboratories
Sa RN4220 lethal: S. aureus RN4220 growth inhibition. actives 0.33% (n = 330,000). OD600, 16 h. inhibition, % (no concentration beside the values). AID 1259311;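 active = z-score of -3 or lower and OD600 up to 0.18 on both plates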;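 note: plate controls were untreated cells for no effect and reference antibiotic for full effect; stock transfer was 100 nL into about 80 µL; one replicate is shown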
Mtb hypoxia inh: inhibitors of hypoxia-regulated fluorescent reporter in Mycobacterium tuberculosis; fluorescence inhibition, % (concentration not given with the values); actives 0.1% (n = 300,000); AID 1159583; M. tuberculosis hypoxia-regulated fluorescent reporter, fluorescence;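 active = 35 to 45% if threefold the growth effect, above 45% if 1.5-fold the growth effect; inactive = the rest, general growth blockers included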;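 note: wells of about 50 µL received 100 nL stock; 0% = vehicle wells and 100% = reference inhibitor wells; whole bacteria with a GFP reporter of the hypoxia response; strong numbers were not always called active; many hits fall short of the cut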
BJeLR viability: kills HRASV12-expressing BJeLR cells | inhibition, % (test concentration not listed) | actives 0.17% (n = 300,000) | BJeLR (HRASV12) viability, CellTiter-Glo ATP luminescence, 48 h; reference of the scale not given here;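 active = replicate mean above 50%; inconclusive = above 50% but judged a plate artefact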;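 note: 50 nL library stock added to about 25 µL; numbers are from one replicate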
Sa ugtP lethal: growth inhibition of S. aureus ugtP deletion strain; growth inhibition, % (concentration not given with the values); S. aureus RN4220 ugtP deletion, OD600 growth, 16 h; some inactives read as strong as hits; actives 0.54% (n = 330,000); AID 1259309;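 active = z-score under -3 and OD600 up to 0.15 on both plates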;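 note: plate controls were untreated wells for no effect and antibiotic for full effect; wells of about 80 µL received 100 nL stock; the first replicate is given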
Bead autofluor: flagged as autofluorescent in microsphere protease counterscreen. compound autofluorescence counterscreen, microsphere flow cytometry; stronger effect = higher value. fluorescence intensity (test concentration not listed). actives 3.1% (n = 360,000). AID 624483;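 active = at least 3 SD above the mean of all compounds, about 16000 in these data; inconclusive = too few beads counted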;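 note: 100 nL of 1 mM stock went into each well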
PrP UTR inh: suppresses PrP 5' UTR mRNA reporter expression; cell-based PrP 5' UTR mRNA reporter, plate reader; actives 0.35% (n = 340,000); inhibition, % (test concentration not listed);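 active = every replicate at 50% or more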;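 note: 0 = median of the neutral control wells; tested in H4 reporter cells; numbers are from one replicate; inactives centre near -14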
Mtb hypoxia inh growth: second read-out of Mtb hypoxia inh, no call of its own (marks repeat the call); growth inhibition, %; measured here: M. tuberculosis growth (absorbance);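 0% = vehicle and 100% = reference antibiotic; read after six days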
* hit, by the source's call; ? = inconclusive; / = no result given.

SMILES	Sa RN4220 lethal	Mtb hypoxia inh	Mtb hypoxia inh growth	BJeLR viability	Sa ugtP lethal	Bead autofluor	PrP UTR inh
Cc1ccccc1NC(=O)N1CCNC(=O)C1CC(=O)Nc1cc(Cl)ccc1Cl (stereo unspecified)	8.6	-1	-1	-7	-2	5969	-3
CC1CCCN(C(=O)C2CCN(S(=O)(=O)c3cccc4nsnc34)CC2)C1 (stereo unspecified)	-0.7	5	16	-5	5	5747	-9
Cc1ccc(S(=O)(=O)/N=c2\ccc(Cl)cn2C(F)F)cc1	/	/	/	-5	/	4210	-14
COc1ccc(NS(=O)(=O)c2cccc3ccccc23)cc1	1.7	19	7	5	1	3339	-24
O=C(Nc1ccccc1Cl)c1csc(-c2cccnc2)n1	7.0	15	1	-3	1	3612	-38
Cc1c(S(=O)(=O)N2CCN(C(=O)c3ccco3)CC2)c(=O)n(C)c(=O)n1C	-12	7	8	-7	-4	5877	-10
Cc1sc2ncnc(NCC3COc4ccccc4O3)c2c1C (stereo unspecified)	25	13	7	6	1	2081	-13
CCOC(=O)c1ccc(NC(=O)c2c(N)n(Cc3ccccc3)c(=O)[nH]c2=O)cc1	3.5	4	2	10	-3	3015	7
CCC1=C2CCC3C(=O)N(CC(=O)OC)C(=O)C3C2[C@@]2(C)C(=NCC(=O)OC)OC(=O)N2C1=O (stereo partly specified)	5.6	10	7	/	9	/	/
Cc1ccc2[nH]cc(CCNC(=O)c3cccs3)c2c1	-0.8	2	1	4	-11	3404	1
CCC(CC)C(=O)Oc1c(Sc2ccccc2[N+](=O)[O-])c(C)nn1C(C)(C)C	-6.8	-8	1	-1	96*	3362	2
COc1ccccc1N1CCN(C(=O)CN2C(=O)c3cccc4cccc(c34)C2=O)CC1	2.9	3	1	-7	1	5065	-8
COc1ccccc1NS(=O)(=O)c1ccc2nc(CCl)[nH]c2c1	0.5	-4	-7	-8	0	3416	-16
O=C(O)c1ccc(NS(=O)(=O)c2cccc3cccnc23)cc1	0.9	/	/	3	9	5223	-7
COc1ccc(NS(=O)(=O)c2ccc(NC(=S)NC(=O)c3ccc(Br)cc3)cc2)nn1	14	12	12	-1	64	9685	-22
CCOC(=O)C1CN(c2cc3c(cc2F)c(=O)c(C(=O)O)cn3CC)OC1C(=O)OCC (stereo unspecified)	8.8	0	9	-2	17	3368	-12
Cc1cnc(NC(=O)CSc2ncc(-c3ccccc3)n2Cc2ccco2)s1	15	-6	7	1	8	4211	-13
CCOC(=O)C1CCCN(C2CC(=O)N(c3ccc(NC(C)=O)cc3)C2=O)C1 (stereo unspecified)	4.1	7	12	1	3	4366	-19
CC(=O)NS(=O)(=O)c1ccc(NC(=S)Nc2ccccc2)cc1	2.8	1	2	0	6	3991	-12
C[C@]12CCC3C(CC[C@H]4[C@H](O)[C@H](O)CC[C@]34C)C1CC[C@@H]2O (stereo partly specified)	5.8	5	6	/	7	3462	-28
CC1CC(=O)N(CC(=O)NCc2ccc(F)cc2)c2ccccc2S1(=O)=O (stereo unspecified)	3.1	6	7	5	11	5109	-17
O=S(=O)(NCCSCc1ccc(Cl)c(Cl)c1)c1ccc2c(c1)OCCO2	-8.0	/	/	-5	42	2294	-29
O=C(NCc1ccccn1)c1ccc(Cn2c(=S)[nH]c3ccccc3c2=O)cc1	-0.8	4	-4	5	-17	2436	-7
CCNC(=O)COC(=O)CCNC(=O)c1ccc(Cl)cc1	9.8	1	-11	-9	1	6236	-19
CC1CCC(NC(=O)c2cnccn2)CC1 (stereo unspecified)	-15	/	/	-11	-3	2943	-19

New compounds follow.
SMILES	Sa RN4220 lethal	Mtb hypoxia inh	Mtb hypoxia inh growth	BJeLR viability	Sa ugtP lethal	Bead autofluor	PrP UTR inh
CC(=NNC(=O)COc1c(C)cccc1C)c1cccs1	1.9	0	3	/	-3	/	/
CCOC(=O)[C@@H]1[C@H]2COc3ccccc3[C@H]2N2C(=O)N(c3cccc(Cl)c3)C(=O)[C@@]12C	/	/	/	-5	/	2897	-12
CCOC(=O)NN=Cc1c[nH]c2ccccc12	2.3	1	2	/	3	/	/
Cc1cc(C)c(NC(=O)CCn2nnc3ccccc32)c(C)c1	2.7	2	14	6	-4	4808	-18
CCCn1nc(NC(=O)c2ccncc2)c2cc3ccccc3nc21	5.8	/	/	-6	-13	5760	-14
O=C(O)/C(=C\c1ccc(Cl)c([N+](=O)[O-])c1)c1ccc(S(=O)(=O)N2CCCCC2)s1	/	/	/	-5	/	4338	-23
CCOc1ncccc1C(=O)OCC(=O)Nc1nnc(-c2ccccc2)o1	9.4	-1	-5	6	1	5627	-15
CC(C)c1ccc(-c2noc(C3CCCN(S(C)(=O)=O)C3)n2)cc1 (stereo unspecified)	2.3	1	9	11	8	6848	-26
Cc1c(NC(=O)c2ccc3c(c2)OCO3)c(=O)n(-c2ccccc2)n1C	2.6	5	7	-6	-2	7857	0
CC(OC(=O)CNC(=O)c1ccccc1F)C(=O)Nc1nc(-c2ccccc2)cs1 (stereo unspecified)	0.2	-1	3	5	3	2453	-27
COc1cc([N+](=O)[O-])cc2cc(C(=O)N3CCCC3)c(=O)oc12	5.1	6	2	-5	1	2422	-7
COc1cc(/C=C2/C(=O)NN(c3cccc(C)c3)C2=O)cc([N+](=O)[O-])c1O	/	/	/	-2	/	3661	12
CCN(CC)Cc1cc(C(C)=O)ccc1OCC(C)C	3.9	6	1	0	-1	16228*	-20
CSc1nc(SC(C)C(=O)O)c2c3c(sc2n1)COC(C)(C)C3 (stereo unspecified)	5.1	-1	-6	0	3	4723	-16
CCn1nnc(NC(=O)C(C)Oc2ccc(Cl)cc2Cl)n1 (stereo unspecified)	2.6	7	9	-10	7	4067	-6
CC(C)C(C(=O)Nc1ccncc1)c1ccc(Cl)cc1 (stereo unspecified)	-3.6	-9	-8	-4	0	4248	-19
Cn1c(N)c(N=Cc2ccccc2)c(=O)n(C)c1=O	1.4	11	10	/	5	3531	-16
Cc1ccc(/C=C/C(=O)N2CCN(c3ccc(F)cc3)CC2)o1	4.5	18	12	10	4	2090	-16
COc1ccc(N2CCN(S(=O)(=O)c3ccc(Cl)c(C(F)(F)F)c3)CC2)cc1	-1.6	0	1	-3	-7	9321	-12
C=C(C)c1ccccc1NC(=O)CCN1C(=O)c2ccccc2S1(=O)=O	2.8	6	5	-2	6	3683	-16
Cc1cc(C(=O)Nc2ccc(OCc3ccccc3)cc2)c(C)o1	53	18	10	21	7	4136	-31
O=c1[nH]c(=O)n(CCc2ccccc2)c(O)c1C=NCCN1CCNCC1	-14	15	12	14	-8	/	6
CCOC(=O)c1ccc(NC(=S)Nc2cc(C)cc(C)n2)cc1	5.1	2	3	-9	21	4693	-38
Clc1ccc(C2Nc3ccccc3-n3cccc32)cc1 (stereo unspecified)	2.0	/	/	-1	8	4278	-16
O=C(O)CN1C(=O)/C(=C/c2ccccc2Cl)Oc2ccccc21	17	4	3	-5	6	3664	-19

Structures shown so far that contain two or more sulfur atoms:
SMILES	Sa RN4220 lethal	Mtb hypoxia inh	Mtb hypoxia inh growth	BJeLR viability	Sa ugtP lethal	Bead autofluor	PrP UTR inh
CC1CCCN(C(=O)C2CCN(S(=O)(=O)c3cccc4nsnc34)CC2)C1 (stereo unspecified)	-0.7	5	16	-5	5	5747	-9
COc1ccc(NS(=O)(=O)c2ccc(NC(=S)NC(=O)c3ccc(Br)cc3)cc2)nn1	14	12	12	-1	64	9685	-22
Cc1cnc(NC(=O)CSc2ncc(-c3ccccc3)n2Cc2ccco2)s1	15	-6	7	1	8	4211	-13
CC(=O)NS(=O)(=O)c1ccc(NC(=S)Nc2ccccc2)cc1	2.8	1	2	0	6	3991	-12
O=S(=O)(NCCSCc1ccc(Cl)c(Cl)c1)c1ccc2c(c1)OCCO2	-8.0	/	/	-5	42	2294	-29
O=C(O)/C(=C\c1ccc(Cl)c([N+](=O)[O-])c1)c1ccc(S(=O)(=O)N2CCCCC2)s1	/	/	/	-5	/	4338	-23
CSc1nc(SC(C)C(=O)O)c2c3c(sc2n1)COC(C)(C)C3 (stereo unspecified)	5.1	-1	-6	0	3	4723	-16

Part of the list above, set out differently.
mol | Sa RN4220 lethal | Mtb hypoxia inh | Mtb hypoxia inh growth | BJeLR viability | Sa ugtP lethal | Bead autofluor | PrP UTR inh
CCCn1nc(NC(=O)c2ccncc2)c2cc3ccccc3nc21 | 5.8 | / | / | -6 | -13 | 5760 | -14
O=C(O)/C(=C\c1ccc(Cl)c([N+](=O)[O-])c1)c1ccc(S(=O)(=O)N2CCCCC2)s1 | / | / | / | -5 | / | 4338 | -23

Later entries.
SMILES	Sa RN4220 lethal	Mtb hypoxia inh	Mtb hypoxia inh growth	BJeLR viability	Sa ugtP lethal	Bead autofluor	PrP UTR inh
O=C(COC(=O)CCC(=O)c1ccccc1)NNC(=O)c1ccc(Cl)cc1	5.9	0	12	2	1	?	-11
COc1ccc(NC(=S)NCCCN2CCCC2)cc1	-1.0	-2	2	0	4	4487	0
ON=C(c1ccccc1)c1cc2cc(Br)cc(Br)c2o1	-4.9	-8	-8	/	73	/	/
CN(C(=O)Cn1cnc([N+](=O)[O-])n1)C1CCCCC1	0.5	16	10	8	7	5786	-15
CS(=O)(=O)c1ccc(NCCc2ccccn2)c([N+](=O)[O-])c1	2.3	-5	-1	7	-2	4054	-28
O=C(NN=C/C=C/c1ccccc1)c1cccnc1	2.3	1	12	/	6	/	/
COC(=O)C1=C(c2cccc(OCc3ccccc3)c2)CC2CCC1N2C(=O)NCCCc1ccccc1 (stereo unspecified)	-7.2	8	11	/	11	/	/
CCOc1cccc(C=NNC(=S)NCCN2CCOCC2)c1O	0.2	1	9	/	-12	/	/
COCCN(C(=O)COC(=O)/C=C/c1ccc2c(c1)OCO2)c1c(N)n(Cc2ccccc2)c(=O)[nH]c1=O	1.9	4	-6	1	7	5714	-9
Cc1[nH]n(C(C)(C)C)c(=O)c1Sc1ccc(Cl)cc1	3.0	1	5	-8	-5	7069	-11
COc1ccc(C)cc1NC(C)C(=O)NC(=O)NC1CCCCC1 (stereo unspecified)	0.8	-3	-8	/	4	3900	-8
Cc1[nH]c2ccccc2c1C(=O)CN1C(=O)NC(C)(c2ccc(Cl)cc2Cl)C1=O (stereo unspecified)	11	-3	-3	-12	-13	2866	-11
CC(C)(C)c1ccc(C=NNc2ccc(C(=O)O)cc2)cc1	-5.7	-1	4	/	-19	/	/
CC(=O)Nc1c(C)ccc(CNC(=O)COc2cc(C)ccc2C)c1C	1.4	-4	9	3	-4	9338	-21
Cc1ccc2c(c1)CCCN2S(=O)(=O)c1cccc(C(=O)Nc2ccccc2C(=O)O)c1	/	/	/	1	/	?	0
CCOc1ccc(OCC)c(NC(=O)C2CCN(S(=O)(=O)c3c(C)noc3C)CC2)c1	5.7	15	15	3	2	3605	-4
Cc1cc2cc3c(cc2nc1SCC(=O)O)OCCO3	8.8	8	1	-8	12	9164	-34
CC1=C/C(=C\C=C(C#N)C#N)N(C)c2ccccc21	2.6	/	/	6	3	/	-10

Complete entries from above. Order of screens: Sa RN4220 lethal | Mtb hypoxia inh | Mtb hypoxia inh growth | BJeLR viability | Sa ugtP lethal | Bead autofluor | PrP UTR inh
CC1=C/C(=C\C=C(C#N)C#N)N(C)c2ccccc21 reads 2.6 | / | / | 6 | 3 | / | -10
CS(=O)(=O)c1ccc(NCCc2ccccn2)c([N+](=O)[O-])c1 reads 2.3 | -5 | -1 | 7 | -2 | 4054 | -28
CCOc1ccc(OCC)c(NC(=O)C2CCN(S(=O)(=O)c3c(C)noc3C)CC2)c1 reads 5.7 | 15 | 15 | 3 | 2 | 3605 | -4
COCCN(C(=O)COC(=O)/C=C/c1ccc2c(c1)OCO2)c1c(N)n(Cc2ccccc2)c(=O)[nH]c1=O reads 1.9 | 4 | -6 | 1 | 7 | 5714 | -9
Cc1[nH]c2ccccc2c1C(=O)CN1C(=O)NC(C)(c2ccc(Cl)cc2Cl)C1=O (stereo unspecified) reads 11 | -3 | -3 | -12 | -13 | 2866 | -11
